# Screening results: PubChem BioAssay, several laboratories
# Rce1 inh: inhibitors of yeast Ras-converting enzyme | Q03530 | yeast membranes, quenched prenylated peptide cleavage fluorescence | calls only | 0.27% of 290,000 active;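 active means fall in fluorescence gain of 50% or more versus controls, with final raw signal at or below 3038400; inconclusive means same 50% fall but final raw signal above 3038400; inactive means fall in fluorescence gain under 50%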;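 further: plate controls were neutral control wells for no effect and wells lacking membranes for full effect; tested at 10 µM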
# Target sequence (Q03530 whole entry, looked up): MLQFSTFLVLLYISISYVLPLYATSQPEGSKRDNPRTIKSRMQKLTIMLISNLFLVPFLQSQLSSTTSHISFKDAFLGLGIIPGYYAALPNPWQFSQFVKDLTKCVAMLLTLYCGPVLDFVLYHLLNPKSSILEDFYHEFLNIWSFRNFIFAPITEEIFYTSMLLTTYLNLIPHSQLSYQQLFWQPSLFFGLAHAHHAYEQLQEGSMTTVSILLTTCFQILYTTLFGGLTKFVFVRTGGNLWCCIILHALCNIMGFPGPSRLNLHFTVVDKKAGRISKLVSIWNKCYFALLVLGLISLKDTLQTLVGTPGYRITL
# CSC inhib: blocks cancer stem cells. cancer stem cell-like cells viability, luminescence. inhibition, % at 7.5 µM. 1.1% of 300,000 active. AID 2717;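 active means mean at 75% or more and at least half the replicates too; inconclusive means mean and replicates disagree; tested in HMLE shEcad cells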;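 further: 0% = median of negative and 100% = median of positive control wells; the first replicate is given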
# Yeast UUG start: modulators of start codon recognition fidelity in yeast; S. cerevisiae UUG-firefly luciferase reporter, luminescence/redox ratio; activity score, % at 18.7 µM; AID 602363; 0.13% of 350,000 active;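 active means replicate mean at a twofold rise or more, about +100% in these data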;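 further: firefly luciferase made from a UUG start codon reports start codon fidelity; reporter light over untreated wells divided by growth signal over untreated wells; some hits fall short of that in this replicate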
# eIF4H FP inh: inhibitors of RNA binding by human eIF4H | inhibition, % at 35 µM | 0.94% of 290,000 active | AID 2012 | eIF4H fluorescence polarization binding assay;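 active means 50% or more with normal probe brightness, or confirmed in later tests; inconclusive means above 50% with abnormal brightness, or retests that disagree; inactive means below 50% or failed in later tests; about a fifth of its hits are not listed in these tables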;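 further: calls also rest on retests at 20 µM and on dose response follow-up; 0% = protein and probe with vehicle and 100% = probe without protein; strong numbers were not always called active; many hits fall short of the cut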
# Env fusion inh: HIV envelope-mediated fusion inhibition; HeLa-JRFL Env/CEM21 cell fusion, luciferase; inhibition, % at 12.3 µM; 1.1% of 360,000 active; AID 651610;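 active means mean replicate inhibition score of at least 50 and every replicate individually at or above 50; inconclusive means only one of the two criteria met; inactive means mean below 50 and not all replicates reaching 50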;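 further: 0% = plate neutral controls and 100% = maraviroc near 300 nM; one replicate is shown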
# MT1-MMP act inh: MT1-MMP (human) activation inhibition. P50281. HT1080 RFP-PRO-GFP cells, GFP/RFP ratio fluorescence, overnight; percent of plate control window, DMSO zero. 0.061% of 360,000 active. AID 651647. GFP/RFP ratio change, % at 20 µM;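 active means GFP/RFP ratio change of at least 30% with cell ATP level not reduced by more than half and red fluorescence within 50% of control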; further: strong numbers were not always called active
#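 Assay system: HT1080 RFP-PRO-GFP cells | Dosing: 20 µM single dose, 1% DMSO | Incubation: Cells overnight before dosing, compound overnight, 37 °C, 5% CO2 | Evaluation: GFP/RFP fluorescence ratio | Control set: DMSO-only wells and HT1080 RFP-L50D-GFP cell wells as references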
# PABP FP inh: PABP-poly(A) binding inhibition; inhibition, % at 35 µM; P11940; PABP-poly(A) RNA binding, fluorescence polarization; 1% of 290,000 active;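 active means 50% or more with normal probe brightness, or confirmed in later tests; inconclusive means above 50% with abnormal brightness, or retests that disagree; inactive means below 50% or failed in later tests; about a fifth of its hits are not listed in these tables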;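 further: calls also rest on retests at 20 µM and on dose response follow-up; controls were probe without protein and protein plus probe with vehicle; some compounds called inactive have numbers as strong as hits; many hits fall short of the cut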
# Target sequence (P11940 whole entry, looked up): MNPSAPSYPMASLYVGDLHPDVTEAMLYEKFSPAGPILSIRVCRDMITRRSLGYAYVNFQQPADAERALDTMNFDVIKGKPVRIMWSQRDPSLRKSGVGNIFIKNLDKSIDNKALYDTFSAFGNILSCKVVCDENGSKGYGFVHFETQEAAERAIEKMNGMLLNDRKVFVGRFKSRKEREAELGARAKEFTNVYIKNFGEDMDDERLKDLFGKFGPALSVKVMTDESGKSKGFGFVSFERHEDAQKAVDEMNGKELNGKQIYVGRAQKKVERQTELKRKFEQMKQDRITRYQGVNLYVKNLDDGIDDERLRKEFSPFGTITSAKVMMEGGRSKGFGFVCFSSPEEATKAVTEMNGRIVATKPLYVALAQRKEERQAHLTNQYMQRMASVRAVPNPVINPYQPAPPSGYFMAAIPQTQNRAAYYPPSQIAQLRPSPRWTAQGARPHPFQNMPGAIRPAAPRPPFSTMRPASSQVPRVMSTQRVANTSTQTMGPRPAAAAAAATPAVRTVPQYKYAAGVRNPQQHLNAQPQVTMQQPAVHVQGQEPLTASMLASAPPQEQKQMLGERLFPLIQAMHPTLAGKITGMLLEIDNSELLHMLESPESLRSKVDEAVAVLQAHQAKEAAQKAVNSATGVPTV
# eIF4H FP inh retest: recorded beside eIF4H FP inh, whose call it bears; inhibition, %; compound at 20 µM; confirmation average;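 mean of two retest wells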
# PABP FP inh retest: further read-out of PABP FP inh, marked with its call; inhibition, %; compound at 20 µM; confirmation repeats;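 mean of two retest wells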
# MT1-MMP act inh RFP: second read-out of MT1-MMP act inh, no call of its own (marks repeat the call); RFP signal change, %; measured here: RFP expression control read;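 0 = vehicle wells; hits needed this value within 50% of zero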
# * = called active by the depositor; i = inactive; ? = inconclusive; / = no result given.
SMILES,Rce1 inh,CSC inhib,Yeast UUG start,eIF4H FP inh,Env fusion inh,MT1-MMP act inh,MT1-MMP act inh RFP,PABP FP inh,others
CCCN1C2CCCC1CC(NC(=O)c1ccc(F)cc1)C2 (stereo unspecified),i,5,-19,5,-20,0,3,-4,
Cc1cc(C(=O)Nc2c(C)nn(Cc3ccccc3Cl)c2C)no1,i,-3,-9,-1,-5,9,-5,2,
Cc1ccc2[nH]c(O)c(N=NC(=O)CCc3ccccc3)c2c1Br,i,51,-6,-14,23,1,-2,-15,
CC(=O)N(CCCCl)C(C#N)c1ccccc1 (stereo unspecified),/,8,/,-3,-38,0,-1,8,
COc1ccc(Cl)cc1C(=O)Nc1nnn(C)n1,i,-25,-4,-2,-14,5,5,-5,
CCc1c(C)nc(N2CCN(c3ccc(Cl)cc3)CC2)[nH]c1=O,i,-12,-4,-3,-7,5,-7,8,
Cn1nnc2cc(C(=O)Nc3ccccc3)ccc21,i,-14,-20,-6,2,4,4,5,
CC(NC(=O)c1ccc(Cl)cc1)C(=O)N1CCCCC1 (stereo unspecified),i,-5,-24,11,13,9,3,-5,
CCOC(=O)c1c(C)n(-c2ccc(C)cc2)c2c(C(C(C)=O)C(=O)O)c(Br)c(O)c(O)c12 (stereo unspecified),i,17,5,8,/,0,-3,24,
CCN(CC)C(=O)c1ncn2c1C(=O)N(C)CC2,/,/,3,/,-105,4,6,/,
COc1cc(/C=N/n2nnnc2N)ccc1OC(C)=O,i,-8,-15,-7,1,-2,-2,-8,
CCOc1ccccc1C(=O)NCC(=O)OCC(=O)N1CCCC1,/,/,2,/,-21,0,4,/,
COc1ccc(-c2cc(C(F)(F)F)n3ncc(C(=O)Nc4c(C)n(C)n(-c5ccccc5)c4=O)c3n2)cc1,i,-2,/,6,/,/,/,-9,
CN(C)CCOc1ccc2c(c1)C(=O)C(=Cc1ncc([N+](=O)[O-])n1C)C2,/,/,-27,/,13,-23,-24,/,
O=C(Nc1ccc(F)cc1)c1cccc2c1C(=O)N(Cc1ccccn1)C2,/,6,-9,-4,/,6,-2,-7,
COc1ccc(C(=O)/C=C/Nc2ccc(S(=O)(=O)Nc3nc(C)cc(C)n3)cc2)cc1OC,i,5,/,3,/,-5,2,1,
Cc1cc(F)ccc1NC(=O)Nc1ccc2c(c1)OCO2,i,/,-18,4,19,1,4,11,
Cc1cccc(C)c1NC(=O)c1nc(S(=O)(=O)Cc2ccccc2)ncc1Cl,i,/,-10,2,-86,-7,-3,-4,
NNC(=O)C1SCCN1S(=O)(=O)c1ccc(Cl)cc1 (stereo unspecified),i,-16,7,/,9,4,5,/,
CCc1cccc(OCC(=O)Nc2cc(Cl)ccc2-n2cncn2)c1,/,/,-9,/,17,-5,-3,/,
Cc1cc(NC(=O)CCC(=O)N(CC(=O)NC2CCCC2)c2cccc(C)c2C)no1,/,-14,-13,/,/,-4,0,/,
CC1CN(S(=O)(=O)c2cccc(C(=O)Nc3ccc(S(=O)(=O)Nc4ncccn4)cc3)c2)CC(C)O1 (stereo unspecified),i,/,-12,-5,7,-2,-1,-6,
O=S(=O)(N1CCCCC1)N1CCCN(S(=O)(=O)N2CCCCC2)CC1,i,-12,-8,-5,/,2,7,-8,
COc1cccc(C(=O)Cn2c(=O)n(CC3CCCO3)c(=O)c3ccccc32)c1 (stereo unspecified),i,-6,-3,-11,/,-2,2,-1,
COc1ccc(-c2csc(NC(=O)c3c(C)noc3C)n2)cc1F,/,/,9,/,-5,0,-10,/,
CCN1C(=O)S/C(=C/c2ccc(Oc3ccc([N+](=O)[O-])cn3)c(OC)c2)C1=O,i,4,/,-7,11,-3,-8,?,
CCCOC(=O)c1cc(NC(=O)/C=C/c2ccccc2)ccc1O,i,7,/,0,3,0,-4,3,
Cc1ccc(NS(=O)(=O)c2cccc(C(=O)NCC(c3ccc(F)cc3)N3CCOCC3)c2)cc1 (stereo unspecified),i,-1,-4,/,/,/,/,/,
O=C(c1cc(-c2ccccc2O)on1)N1CCc2ccccc2C1,i,11,-11,3,-34,3,1,15,
COc1ccc(S(=O)(=O)N(CCCN2CCOCC2)Cc2cccc3ccccc23)cc1,i,16,-3,5,/,-1,-2,-8,
CC(NC(=O)c1ccc(Cl)c(Cl)c1)c1ccc(-c2ccccc2)cc1 (stereo unspecified),i,-6,/,10,14,0,0,8,
CCOc1ccc(CCNC(=O)CS(=O)Cc2nc(-c3ccccc3Cl)oc2C)cc1OCC (stereo unspecified),i,-2,-6,-12,24,1,-1,10,
CCN1C(=O)[C@H]2[C@@H](c3ccc(-c4ccc(F)cc4)cc3)N[C@@](CC(C)C)(C(=O)OC)[C@H]2C1=O,i,14,-4,/,-16,-3,-6,/,
CCCNC(=O)c1cc(-c2ccccc2)c(N2CCCCC2)s1,i,/,0,7,-24,-3,0,5,
C=CCn1cccc(C(=O)Nc2ccc(Cl)cc2)c1=O,i,-2,6,-2,-21,-6,-22,9,
CC1CCCC/C1=N\Nc1ccc(S(N)(=O)=O)cc1[N+](=O)[O-] (stereo unspecified),i,-11,0,-4,-41,4,1,2,
CN=CC1=C(O)C(C(=O)OC)C(C)(C)CC1=O (stereo unspecified),i,-3,/,15,15,0,4,8,
CC1=NN(/C(=N\c2nnc(C)s2)Nc2ccccc2)[C@H](c2ccc(C)cc2)S1,i,-4,-8,10,-30,-1,1,-1,
CC(C)n1cc(C(N)=S)c(=O)n(Cc2ccccc2)c1=O,i,-6,-13,5,2,0,-2,4,
NC(c1csc(NC(=O)c2cccc(OC(F)(F)F)c2)n1)c1ccccc1Cl (stereo unspecified),/,/,-3,/,36,-2,-3,/,
Cc1ccc(NC(=O)c2cc(-c3ccc4c(c3)OCO4)on2)cc1,i,21,-4,-12,-24,6,1,-3,
CN(Cc1ccc(F)cc1)C(=O)C(Cc1ccccc1)NC(=O)c1ccccc1 (stereo unspecified),i,-5,-2,/,/,-10,-5,/,
Cc1ccccc1C(=O)Oc1cccc2c(O)cccc12,i,26,3,11,-77,-3,-3,13,
CCN(C(=O)c1c(-c2ccccc2)noc1C)c1ccccc1,i,-10,-10,6,-62,4,0,-2,
COc1ccc(C(=O)NC(=S)NC(C)(C)C)cc1Br,i,/,-12,-7,/,-2,-3,2,
Cc1cc(Br)ccc1NC(=O)C1CCCO1 (stereo unspecified),i,-1,-2,-5,-92,7,4,4,
C#CCOCCOCCOCCNc1nc(N2CCN(C(=O)Cn3cc(CCCCN)nn3)CC2)nc(N2CCN(C(=O)[C@H](C(C)C)n3cc(CCO)nn3)CC2)n1,i,-1,4,-2,-38,0,-1,-4,
COc1ccc(NC(=O)COc2ccc3c(c2)CCC3)cc1S(N)(=O)=O,/,-2,-4,/,/,3,-5,/,
Cc1ccccc1/C=N/Nc1ccc(Cl)nn1,i,-3,/,-12,-32,-2,1,-1,
COC(=O)CN(c1ccc(Cl)cc1C)S(C)(=O)=O,i,-5,-12,-1,-19,-3,0,-1,
O=C(Nc1ccc(O)c(-c2nc3ccccc3s2)c1)c1cc(=O)c2ccccc2o1,i,47,-3,62,-9,-3,-6,-4,eIF4H FP inh retest=27;PABP FP inh retest=44
O=C(O)c1ccccc1C(=O)NCCc1c(C(=O)O)[nH]c2ccc(Cl)cc12,i,-15,/,-3,4,-2,-3,-3,
CC(=O)Nc1ccc(NS(C)(=O)=O)cc1,i,-19,0,-2,-62,-4,5,-2,
COc1ccccc1NC(=O)C(C)OC(=O)/C(=C/c1ccccc1)NC(C)=O (stereo unspecified),i,-7,-12,/,-12,2,4,/,
CCCS(=O)(=O)N1CCN(CCN2C(=O)c3cccc4cccc(c34)C2=O)CC1,i,-6,/,2,16,-5,-4,0,
Cc1ccc(CN2CCN(/N=C/c3cc(Br)cc(Br)c3O)CC2)c(C)c1,i,28,/,24,24,4,5,-4,
CCc1nc2c(OCCn3cccc3)cccn2c1N(C)C(=O)c1ccccc1F,/,/,-10,/,i,8,1,/,
O=C(CSc1ncn[nH]1)N1c2ccccc2Sc2ccccc21,i,-4,/,-2,-7,-7,-3,3,
O=CC1=C(N2CCOCC2)/C(=C/c2ccc(Cl)cc2)CC1,i,7,/,11,8,1,0,2,
CCC(=O)NC(=S)Nc1ccc(NC(=O)CC)cc1,i,1,-15,5,-4,4,2,2,

# Next section.
SMILES,Rce1 inh,CSC inhib,Yeast UUG start,eIF4H FP inh,Env fusion inh,MT1-MMP act inh,MT1-MMP act inh RFP,PABP FP inh,others
COc1cc(/C=N/NC(=O)c2ccc(N)cc2)ccc1OC(=O)c1cccc(C)c1,i,-13,-27,2,2,7,2,-4,
O=C(NCc1ccc(F)cc1)c1cccc(S(=O)(=O)N2CCCC2)c1,i,-1,-19,-2,/,-2,0,2,
CN(C)S(=O)(=O)c1ccc(C(=O)Nc2cccc(C(=O)N3CCOCC3)c2)cc1,i,-5,-8,5,/,3,1,-6,
CN(C)CC(C)(C)CNC(=O)c1cc(Br)cc(Br)c1O,i,-10,/,-3,14,3,3,-4,
CCc1nnc(NC(=O)C=C(C)C)s1,i,-3,-15,-8,/,5,11,2,
CCOC(=O)N1CCN(C(=O)CSc2cc(C)nc3c(-c4ccccc4OC)c(C)nn23)CC1,i,/,-27,5,/,11,4,3,
CCCCn1nnnc1C(c1ccccc1)N1CCN(C/C=C/c2ccccc2)CC1 (stereo unspecified),/,/,9,/,-71,5,1,/,
Clc1cc(NCc2ccccc2)ncn1,i,1,-6,/,4,2,3,/,
CCc1ccc(N2CCN(CCNC(=O)Nc3ccccc3)CC2)cc1,/,-2,-4,14,-27,-1,-1,-6,
CCOc1cc(/C=C/C(=O)c2ccc(OC)c(CN3CCOCC3)c2)cc(Br)c1O,i,/,3,2,-14,-101,-6,-7,
COC(=O)c1ccc(C2CC(=O)Nc3cc(OC)c(OC)c(OC)c32)cc1 (stereo unspecified),i,-12,2,-4,/,4,13,13,
CN(C(=O)c1cccc(NC(=O)Cc2cccc(NC(=O)C3CCCN(C(=O)CCc4ccccc4)C3)c2)c1)C1CCC1 (stereo unspecified),/,/,5,/,36,-9,-23,/,
CC(=O)Nc1cccc(Oc2cc(C#N)c(C#N)cc2N2CCCCCC2)c1,i,-7,-4,-6,/,-5,-12,-2,
O=C(COC(=O)C1CC(=O)N(Cc2ccccc2)C1)c1ccc(F)cc1 (stereo unspecified),i,-13,/,2,8,0,4,1,
c1cnc2ccc3ncccc3c2c1,i,24,-15,11,4,-2,0,16,

# Reprinted from the part before: 2 compounds, followed by the next part.
SMILES,Rce1 inh,CSC inhib,Yeast UUG start,eIF4H FP inh,Env fusion inh,MT1-MMP act inh,MT1-MMP act inh RFP,PABP FP inh,others
O=C(COC(=O)C1CC(=O)N(Cc2ccccc2)C1)c1ccc(F)cc1 (stereo unspecified),i,-13,/,2,8,0,4,1,
c1cnc2ccc3ncccc3c2c1,i,24,-15,11,4,-2,0,16,
CC(C)[C@H](NC(=O)C1CCN(S(=O)(=O)c2ccccc2)CC1)C(=O)NCc1ccccc1,i,11,-19,-2,1,-1,1,-4,
CCCCn1cnc2c(=S)nc(N)[nH]c21,i,-11,-28,-9,-13,1,4,4,
COc1cc(C(=O)Nc2ccc3oc(-c4cccnc4)nc3c2)cc(OC)c1OC,i,-2,/,-11,3,15,-10,-1,
COc1cccc(CN2CCN(Cc3cccc4c3OCO4)CC2CCO)c1 (stereo unspecified),i,6,5,8,-6,-4,2,-3,
CSC1=N/C(=C\c2c(F)cccc2Cl)C(=O)S1,i,4,/,7,0,-1,3,-4,
